Sa growth 42C = S. aureus growth inhibition at 42 and 30 °C, primary screen, LtaS inhibitor project, RN4220, two temperatures; OD600, 20 h, 42 °C; stronger effect = lower value; relative growth, % (concentration not given with the values); 170,000 compounds, 0.53% hits;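 active = growth at 42 °C up to 50% and 20 or more points under that at 30 °C, or under 10% at both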;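 note: 300 nL library stock went into each well; scaled to the means of positive and negative controls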
GIV Gai3 FP = inhibitors of GIV peptide binding to Galpha-i3, primary screen, biochemical, fluorescence polarization, FITC-GIV GBA peptide, rat Galphai3 | Guanine nucleotide-binding protein G(i) subunit alpha-3 (Rattus norvegicus), P08753 | percent of control (FP), % (no concentration beside the values) | 90 min; stronger effect = lower value; scaled: aluminum fluoride 0%, vehicle 100% | AID 1224905, 2016 | 210,000 compounds, 0.42% hits;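 active = replicate mean at 85% of control or lower, very high polarization wells dropped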;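 note: wells of about 15 µL received 100 nL stock; the first replicate is given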
Target sequence (P08753 whole entry, looked up): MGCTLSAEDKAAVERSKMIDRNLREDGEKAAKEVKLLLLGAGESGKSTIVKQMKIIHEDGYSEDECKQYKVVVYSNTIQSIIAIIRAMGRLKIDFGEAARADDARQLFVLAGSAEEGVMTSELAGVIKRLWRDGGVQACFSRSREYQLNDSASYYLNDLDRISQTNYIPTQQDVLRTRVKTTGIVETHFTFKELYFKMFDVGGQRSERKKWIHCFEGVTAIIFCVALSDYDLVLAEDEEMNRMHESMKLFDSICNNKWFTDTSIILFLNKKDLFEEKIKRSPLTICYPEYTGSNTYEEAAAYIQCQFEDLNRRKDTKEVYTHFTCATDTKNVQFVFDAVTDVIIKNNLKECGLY
HCMV NEC inh = inhibitors of HCMV UL50-UL53 interaction, biochemical, HTRF | 190,000 compounds, 0.15% hits | inhibition, % (test concentration not listed) | normalized percent inhibition | HCMV UL50-UL53 nuclear egress complex (human cytomegalovirus);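 active = both replicates at 50% or more, plus weaker picks with an unusually low signal ratio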;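 note: stock transfer was 100 nL into about 20 µL; 0% = negative control wells and 100% = wells with untagged competitor protein; inactives centre near -12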
Sa growth 42C second temp = second read-out of Sa growth 42C, no call of its own (marks repeat the call); relative growth, %; measured here: growth at 30 °C;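 optical density after 20 h as mean of two plates; 100% = untreated growth and lower means inhibition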
The depositor's hits bear a star. Compounds as they come; about 0.82% have a hit in one of these screens.

COc1ccccc1C/C(N)=N/OC(=O)c1ccccc1 was read as Sa growth 42C 91, GIV Gai3 FP 105, HCMV NEC inh -40 and Sa growth 42C second temp 94.
Cc1ccc(C(=O)NCCc2ccc(S(N)(=O)=O)cc2)cc1-n1cnc2cccnc21 was read as Sa growth 42C 136, GIV Gai3 FP 108 and Sa growth 42C second temp 95.
For COC(=O)C1=CN(C2CC2)C=C(C(=O)OC)C1c1ccccc1 the results were Sa growth 42C 82, GIV Gai3 FP 107 and Sa growth 42C second temp 91.
`Cc1ccc(NC(=O)C2CCN(S(=O)(=O)c3cc(-c4noc(C(C)C)n4)sc3C)CC2)cc1F` gave GIV Gai3 FP 108 and HCMV NEC inh -11.
CCOc1ccc(NC(=O)c2cnc3ccccn3c2=O)cc1 was read as Sa growth 42C 87, GIV Gai3 FP 100, HCMV NEC inh -68 and Sa growth 42C second temp 86.
For COC(=O)c1sc(NC(=O)CSc2ncnc3sc4c(c23)CCC4)c(C(=O)OC)c1C the results were GIV Gai3 FP 103 and HCMV NEC inh -1.
For Cc1ccccc1N1C(=O)C(Oc2ccc(Cl)cc2)C1CNCCCOC(C)C (centres undefined) the results were GIV Gai3 FP 98 and HCMV NEC inh -27.
`COc1ccc(/C=C/C2=CCN(Cc3ccc(OC)cc3)CC2)cc1` gave Sa growth 42C 88, GIV Gai3 FP 101, HCMV NEC inh -19 and Sa growth 42C second temp 84.
Cc1cc(C(=O)NCc2ccc(N3CCOCC3)cc2)nn1C was read as Sa growth 42C 97, GIV Gai3 FP 101, HCMV NEC inh -3 and Sa growth 42C second temp 95.
N#Cc1ccccc1NC(=O)COC(=O)C1CCCCC1 was read as Sa growth 42C 96, HCMV NEC inh 16 and Sa growth 42C second temp 92.
Screening Cn1c(=O)c2conc2n(C)c1=O returned Sa growth 42C 89, GIV Gai3 FP 105, HCMV NEC inh -36 and Sa growth 42C second temp 74.
Screening COc1ccccc1NC(=O)CSc1cc(C(F)(F)F)cc(C(F)(F)F)c1 returned Sa growth 42C 83, GIV Gai3 FP 106, HCMV NEC inh -21 and Sa growth 42C second temp 87.
Screening CCN(C(=O)Nc1cc(NC(=O)N(CC)C2CCCCC2)c(C)nc1C)C1CCCCC1 returned Sa growth 42C 86, HCMV NEC inh -18 and Sa growth 42C second temp 93.
For Cc1c(C(=O)N2CCOCC2)cc(-c2ccccc2)n1-c1ccccc1 the results were Sa growth 42C 101, GIV Gai3 FP 102, HCMV NEC inh -3 and Sa growth 42C second temp 81.
For CCn1c(=O)c(=O)n(CC)c2cc(N3CCCCC3)c(NC(=O)c3ccccc3)cc21 the results were Sa growth 42C 91, GIV Gai3 FP 99, HCMV NEC inh -23 and Sa growth 42C second temp 85.
`CN(C)c1ccc(C(=O)NC2CCSC2=O)cc1` (centres undefined) gave Sa growth 42C 97, GIV Gai3 FP 103, HCMV NEC inh -28 and Sa growth 42C second temp 97.
Screening CC1CCCN(Cc2nc3c(c(=O)n(C)c(=O)n3C)n2Cc2ccc(Cl)cc2)C1 (centres undefined) returned Sa growth 42C 107, GIV Gai3 FP 106, HCMV NEC inh -15 and Sa growth 42C second temp 89.
`O=c1c2ccccc2nc(SCc2ccc(Cl)cc2)n1CC1COc2ccccc2O1` (centres undefined) gave Sa growth 42C 120, GIV Gai3 FP 105 and Sa growth 42C second temp 91.
For O=C(CN1CCN(c2ccc(Cl)cc2)CC1)Nc1ccc(Cl)c(C(F)(F)F)c1 the results were Sa growth 42C 90, GIV Gai3 FP 110 and Sa growth 42C second temp 76.
For N#CC1=C(N)Oc2c(c(=O)oc3ccccc23)C1 the results were Sa growth 42C 56, GIV Gai3 FP 96, HCMV NEC inh -19 and Sa growth 42C second temp 21.
CN1CCC(N(C)C(=O)c2cc3cccnc3n(Cc3ccc(F)cc3)c2=O)CC1 was read as GIV Gai3 FP 105 and HCMV NEC inh -19.
`CC(C)CCn1c(=O)c2sccc2n2c(CCCC(=O)NCc3ccc(F)cc3)nnc12` gave Sa growth 42C 117, GIV Gai3 FP 105 and Sa growth 42C second temp 85.
COc1ccc(C(=O)Nc2cccc(-c3cn4ccsc4n3)c2)c(OC)c1 was read as Sa growth 42C 81, GIV Gai3 FP 105 and Sa growth 42C second temp 67.
CCOC(=O)c1ccc(OC(=O)/C=C/c2cccs2)cc1 was read as Sa growth 42C 91, GIV Gai3 FP 95, HCMV NEC inh -15 and Sa growth 42C second temp 79.

Next section; it opens with the six that closed the last part.
For O=C(CN1CCN(c2ccc(Cl)cc2)CC1)Nc1ccc(Cl)c(C(F)(F)F)c1 the results were Sa growth 42C 90, GIV Gai3 FP 110 and Sa growth 42C second temp 76.
For N#CC1=C(N)Oc2c(c(=O)oc3ccccc23)C1 the results were Sa growth 42C 56, GIV Gai3 FP 96, HCMV NEC inh -19 and Sa growth 42C second temp 21.
CN1CCC(N(C)C(=O)c2cc3cccnc3n(Cc3ccc(F)cc3)c2=O)CC1 was read as GIV Gai3 FP 105 and HCMV NEC inh -19.
`CC(C)CCn1c(=O)c2sccc2n2c(CCCC(=O)NCc3ccc(F)cc3)nnc12` gave Sa growth 42C 117, GIV Gai3 FP 105 and Sa growth 42C second temp 85.
COc1ccc(C(=O)Nc2cccc(-c3cn4ccsc4n3)c2)c(OC)c1 was read as Sa growth 42C 81, GIV Gai3 FP 105 and Sa growth 42C second temp 67.
CCOC(=O)c1ccc(OC(=O)/C=C/c2cccs2)cc1 was read as Sa growth 42C 91, GIV Gai3 FP 95, HCMV NEC inh -15 and Sa growth 42C second temp 79.
For C=CCSc1ncc(Cl)c(C(=O)Nc2scc(-c3ccc(C)cc3)c2C(=O)OCC)n1 the results were GIV Gai3 FP 111 and HCMV NEC inh -8.
`COCCNC(=O)c1cccc(OC(C)C)c1` gave Sa growth 42C 97, GIV Gai3 FP 104, HCMV NEC inh -27 and Sa growth 42C second temp 98.
For CN1CCN(c2ccc(CNS(=O)(=O)c3cccc4nonc34)cc2)CC1 the results were Sa growth 42C 97, GIV Gai3 FP 99, HCMV NEC inh -106 and Sa growth 42C second temp 86.
Screening CS(=O)(=O)c1ccc(-c2csc(-n3nccc3C(F)(F)F)n2)cc1 returned Sa growth 42C 116, HCMV NEC inh -12 and Sa growth 42C second temp 96.
COc1ccc(CCNC(C)C(=O)NC2(C#N)CCCCC2)cc1OC (centres undefined) was read as Sa growth 42C 94, HCMV NEC inh -12 and Sa growth 42C second temp 98.
Screening CN1CCC(OC(=O)Cc2ccc(Cl)cc2)CC1 returned Sa growth 42C 103, GIV Gai3 FP 104, HCMV NEC inh -5 and Sa growth 42C second temp 77.
For COc1ccc(C(=O)c2ccc(-c3cccs3)s2)cc1 the results were Sa growth 42C 121, GIV Gai3 FP 104, HCMV NEC inh -7 and Sa growth 42C second temp 66.
NCCN1CCCC1=O was read as Sa growth 42C 88, GIV Gai3 FP 106, HCMV NEC inh -13 and Sa growth 42C second temp 97.
`CCn1cc(C(=O)Nc2ccccc2)c(=O)c2ccc(C)nc21` gave Sa growth 42C 90, GIV Gai3 FP 100, HCMV NEC inh -27 and Sa growth 42C second temp 79.
COc1ccc(CC(=O)Nc2ccc(N3CCOCC3)cc2)cc1S(=O)(=O)N1CCOCC1 was read as Sa growth 42C 89, HCMV NEC inh -19 and Sa growth 42C second temp 94.
Screening COc1ccc(-n2nc(C(=O)Nc3ccc(C)cn3)c3c4ccccc4n(C)c3c2=O)cc1 returned Sa growth 42C 97, GIV Gai3 FP 101, HCMV NEC inh -23 and Sa growth 42C second temp 91.
For O=C(COC(=O)c1ccc(S(=O)(=O)Nc2ccccc2)cc1)Nc1nnc(-c2ccccc2)o1 the results were Sa growth 42C 89, HCMV NEC inh -11 and Sa growth 42C second temp 73.
For CCOC(=O)c1ccc(OCC2c3cc(OC)c(OC)cc3CCN2C(=O)c2ccc(S(=O)(=O)N3CCCC3)cc2)cc1 (centres undefined) the results were Sa growth 42C 112, GIV Gai3 FP 101 and Sa growth 42C second temp 94.
O=C(CCOc1ccc(F)cc1)N1CCSCC1 was read as Sa growth 42C 88, GIV Gai3 FP 98, HCMV NEC inh -3 and Sa growth 42C second temp 90.
Cc1c(CNC(C)c2ccccc2)c(C(=O)O)c(C)n1Cc1c(F)cccc1Cl (centres undefined) was read as Sa growth 42C 112, GIV Gai3 FP 101, HCMV NEC inh -12 and Sa growth 42C second temp 84.
Screening CN(C(=O)CN1C(=O)c2ccccc2S1(=O)=O)c1ccccc1C(=O)O returned Sa growth 42C 94, GIV Gai3 FP 99, HCMV NEC inh 7 and Sa growth 42C second temp 92.
O=S(=O)(Nc1ccc(F)c(F)c1)c1ccc(F)cc1 was read as Sa growth 42C 124, GIV Gai3 FP 103, HCMV NEC inh 7 and Sa growth 42C second temp 103.
S=C(c1ccc2c(c1)OCO2)N1CCCC1 was read as Sa growth 42C 107, GIV Gai3 FP 101, HCMV NEC inh -6 and Sa growth 42C second temp 109.
Screening CCOC(=O)N1CCN(C(=O)c2cccn3c(=O)c4cc5ccccc5cc4nc23)CC1 returned Sa growth 42C 107, GIV Gai3 FP 24* and Sa growth 42C second temp 88.
For COC(=O)c1ccc(C2N=C(c3cccc(OC)c3)CC(c3ccccc3O)N2)cc1 (centres undefined) the results were Sa growth 42C 50, GIV Gai3 FP 102 and Sa growth 42C second temp 39.
CN(c1ccc(Oc2ncnc3c2oc2ccccc23)cc1)S(=O)(=O)c1ccc(Cl)cc1 was read as Sa growth 42C 101, HCMV NEC inh -1 and Sa growth 42C second temp 92.
`COc1ccc(S(=O)(=O)c2c(Nc3ccc(F)cc3)sc(C(=O)c3ccc4c(c3)OCO4)c2N)cc1` gave Sa growth 42C 112, GIV Gai3 FP 104 and Sa growth 42C second temp 105.
O=C1N/C(=C/c2ccccc2)C(=O)N1c1cccc(Cl)c1 was read as Sa growth 42C 101, GIV Gai3 FP 99 and Sa growth 42C second temp 85.
`CC(NC(=O)CSc1nc(-c2ccccc2F)nc2cc(=O)[nH]n12)c1nc2ccccc2n1C` (centres undefined) gave Sa growth 42C 98, GIV Gai3 FP 103 and Sa growth 42C second temp 84.
`O=C(Nc1sc2c(c1C(=O)O)CCCC2)c1ccc(Br)cc1` gave Sa growth 42C 128, HCMV NEC inh -12 and Sa growth 42C second temp 66.
C=CCNC(=O)c1cc(C)on1 was read as Sa growth 42C 105, GIV Gai3 FP 102, HCMV NEC inh 9 and Sa growth 42C second temp 98.
`CC1CCN(S(=O)(=O)c2ccc(C(=O)Oc3ccc4c(c3)OCO4)cc2)CC1` gave Sa growth 42C 89, HCMV NEC inh -10 and Sa growth 42C second temp 95.
Screening CCN(C(=O)c1ccco1)c1nc(CC(=O)Nc2ccc(Cl)cc2)cs1 returned Sa growth 42C 111, GIV Gai3 FP 103, HCMV NEC inh -7 and Sa growth 42C second temp 76.
For CCN(CC)c1nc(SCC(=O)O)nc(N(CC)CC)n1 the results were Sa growth 42C 113, GIV Gai3 FP 98, HCMV NEC inh -8 and Sa growth 42C second temp 95.
Screening Cc1nnc(Oc2ccc(Cl)cc2Cl)c2ccccc12 returned Sa growth 42C 108, HCMV NEC inh -21 and Sa growth 42C second temp 76.
CC(O)c1nc2ccccc2n1CN1CCN(c2ccccc2)CC1 (centres undefined) was read as Sa growth 42C 96, HCMV NEC inh -5 and Sa growth 42C second temp 91.
Screening O=C(Nc1ccccc1)c1csc2ccc(Cl)cc12 returned Sa growth 42C 103, GIV Gai3 FP 106, HCMV NEC inh -7 and Sa growth 42C second temp 84.
`COc1ccc(CCNC(=O)CCN2C(=O)C(C)Oc3ccc(C)cc32)cc1OC` (centres undefined) gave Sa growth 42C 103, GIV Gai3 FP 110, HCMV NEC inh 2 and Sa growth 42C second temp 88.
For Cc1cccc(NC(=O)Cn2nnc(C(=O)NCc3cccs3)c2N)c1C the results were Sa growth 42C 111, GIV Gai3 FP 104, HCMV NEC inh -19 and Sa growth 42C second temp 92.
`COc1ccc(-n2nnnc2C2CCN(S(=O)(=O)c3c(C)c(C)cc(C)c3C)CC2)cc1` gave GIV Gai3 FP 103 and HCMV NEC inh -21.
`COC(=O)C1=CN(CC23CC4CC(CC(C4)C2)C3)C=C(C(=O)OC)C1c1ccc(F)cc1` gave Sa growth 42C 84, HCMV NEC inh -5 and Sa growth 42C second temp 84.
CCCn1c(SCC(=O)Nc2cc(C)on2)nc2sc3c(c2c1=O)CCCC3 was read as Sa growth 42C 105, HCMV NEC inh -8 and Sa growth 42C second temp 96.
NC(N)=NC(N)=Nc1ccc2ccccc2c1 was read as Sa growth 42C 104, GIV Gai3 FP 101, HCMV NEC inh -26 and Sa growth 42C second temp 102.
Screening CCC(NC(=O)Nc1cc(C)cc(C)c1)c1c(-n2cccc2)sc2c1CCN(CC)C2 (centres undefined) returned Sa growth 42C 133, GIV Gai3 FP 109 and Sa growth 42C second temp 55.
For O=C(O)c1cccc(S(=O)(=O)N2c3cccc4cccc(c34)S2(=O)=O)c1 the results were Sa growth 42C 108, HCMV NEC inh -54 and Sa growth 42C second temp 88.
`Cc1ccc(S(=O)(=O)[C@H]2CS(=O)(=O)C[C@@H]2NCCc2c[nH]c3ccccc23)cc1` gave GIV Gai3 FP 99 and HCMV NEC inh -17.
`CC1(C)CC(=O)C=C(N2CCN(c3ccccc3F)CC2)C1` gave Sa growth 42C 90, HCMV NEC inh -14 and Sa growth 42C second temp 94.
Cc1ccc(NS(=O)(=O)c2cc3c4c(c2)CCN4C(=O)CC3)c(C)c1 was read as GIV Gai3 FP 100 and HCMV NEC inh -5.

Screening data from PubChem BioAssay.
